HPGD inh – inhibitors of human 15-hydroxyprostaglandin dehydrogenase (HPGD) | P15428 | purified HPGD, NADH fluorescence kinetic, PGE2 substrate | Potency, µM, without a hit: at the top dose activity change, negative = inhibition, most hits filed as inhibitors | hit rate 4.3% among 150,000; active = well fitted inhibition curve with a large enough effect (not every such curve was filed as active); inconclusive = small, poorly fitted or top-dose-only effect, or another doubt; inactive = no such curve, though single readings can be large or run the other way;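 note: top concentration of the series not given in the record; plate controls included wells without enzyme; inactives centre near -10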
Target sequence (P15428 whole entry, looked up): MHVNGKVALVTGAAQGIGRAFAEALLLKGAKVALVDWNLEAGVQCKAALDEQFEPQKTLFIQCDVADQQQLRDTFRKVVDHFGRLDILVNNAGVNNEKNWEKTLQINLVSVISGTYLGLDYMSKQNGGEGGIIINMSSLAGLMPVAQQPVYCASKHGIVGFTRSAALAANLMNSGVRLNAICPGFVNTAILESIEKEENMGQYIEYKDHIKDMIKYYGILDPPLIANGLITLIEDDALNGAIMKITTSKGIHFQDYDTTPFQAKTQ
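NADH formation kinetics: reaction with 30 uM PGE2 and 1 mM NAD+ (final), 20 nM enzyme, Tris-HCl pH 8 with Tween 20, after 15 min compound preincubation at room temperature. Fluorescence change, last versus first of five reads.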
Numbers without * were called inactive; & = joins results of further samples. % is set by controls: 0 for no effect and ±100 for the full control effect; potency is the fitted concentration of half-maximal effect. A portion of the library (hit frequency here may not be typical).

Results for CCOC(=O)C1C(c2cc(OC)c(OC)c(OC)c2)NC(=S)NC1(O)C(F)(F)F (stereo not drawn) ?
HPGD inh: 32µM*

Results for Nc1ccccc1NC1=CC(=O)CC(c2ccco2)C1 (stereo not drawn) ?
HPGD inh: -6%

How did Cc1cc(C)cc(N(CCC(=O)Nc2nnc(C3CC3)s2)S(=O)(=O)c2ccc(Cl)cc2)c1 do in these assays?
HPGD inh: -10%

What do the screens show for `O=C1c2cccnc2C(=O)N1c1ccccc1-c1ccccc1`?
HPGD inh: -8%

Results for COC(=O)c1cc(OC)c(OC)cc1NC(=O)CC1CCCCC1 ?
HPGD inh: -10%

What do the screens show for `Cc1cccc(NS(=O)(=O)c2cccs2)c1`?
HPGD inh: 28µM*

How did O=c1[nH][nH]c(-c2ccccc2)c1C=Nc1ccccc1Cl do in these assays?
HPGD inh: inconclusive

Results for CCc1nnc(NC(=O)c2cc(S(=O)(=O)N(CC)CC)ccc2Cl)s1 ?
HPGD inh: -1%

How did CNc1ccccc(-c2ccc3cc4c(cc3n2)OCO4)c1=O do in these assays?
HPGD inh: -3%

What do the screens show for `CCCOc1ccccc1Cn1c(=O)oc2ccc(C)cc21`?
HPGD inh: 25µM*

What do the screens show for `CCNc1nc(NCC)n2c(SCC(=O)O)nnc2n1`?
HPGD inh: -5%

What do the screens show for `c1ccsc1`?
HPGD inh: -15%

What do the screens show for `CC(C)CCNC(=O)CN(CC1CCCO1)C(=O)CCC(=O)Nc1nccs1` (stereo not drawn)?
HPGD inh: -4%

What do the screens show for `O=C(COc1ccccc1)Nc1ccc([N+](=O)[O-])cc1`?
HPGD inh: -3%

What do the screens show for `CC(C)COP(=O)(c1ccc(N(C)C)cc1)C(Nc1ccccc1)c1cccnc1` (stereo not drawn)?
HPGD inh: 0%

Results for CC(C)C1C(c2ccccc2)N(C)C(c2ccccc2)CC1(O)c1ccccc1 (stereo not drawn) ?
HPGD inh: -9%

What do the screens show for `CN1CCc2c(c3c(n2C)CCN(C)[C@H]3c2ccccc2F)[C@@H]1c1ccccc1F`?
HPGD inh: -5%

Results for CC(=O)N1CC(=O)N(OCc2ccccc2)C1c1ccc(Cl)cc1Cl (stereo not drawn) ?
HPGD inh: -11%

How did CCCCCn1c(=O)[nH]c2cc(C(=O)O)ccc2c1=O do in these assays?
HPGD inh: inconclusive

Results for O=c1[nH]c(=S)c2[nH]c(=O)n(-c3ccccc3)c2[nH]1 ?
HPGD inh: -16%

How did O=C(O)CCn1c(SCc2ccccc2)nc2ccccc21 do in these assays?
HPGD inh: -12%

Results for O=c1[nH]c2cc(Cl)cc(Cl)c2[nH]c1=O ?
HPGD inh: -29%

What do the screens show for `CCN(CC)S(=O)(=O)c1ccc2c(c1)nc(SCn1nnc3ccccc3c1=O)n2CC`?
HPGD inh: -16%

How did COc1ccc(CC(=O)OCC(=O)Nc2ccc(Cl)cn2)cc1 do in these assays?
HPGD inh: -20%

How did COc1ccc(OC)c(S(=O)(=O)NCc2cccnc2)c1 do in these assays?
HPGD inh: -10%

How did Cc1ccc(-c2cc(C(=O)Nc3nn[nH]n3)c3ccccc3n2)c(C)c1 do in these assays?
HPGD inh: inconclusive

How did Cc1ccc(C(=O)Nc2ccc3c(c2)CCC3)o1 do in these assays?
HPGD inh: 22µM*

What do the screens show for `COc1cccc(-c2cc(C(=O)N3CCN(C(c4ccccc4)c4ccccc4)CC3)no2)c1`?
HPGD inh: -20%

Results for Cc1ccn2c(Nc3ccc4c(c3)OCO4)c(-c3ccccn3)nc2c1 ?
HPGD inh: -19%

What do the screens show for `COc1ccc(-c2csc(NC(=O)c3ccccc3NS(=O)(=O)c3ccc(C)cc3)n2)cc1`?
HPGD inh: -13%

What do the screens show for `O=C(CN1CCCCCCC1)N/N=C/c1ccccc1F`?
HPGD inh: 32µM*

What do the screens show for `COc1ccccc1C(c1nnnn1CCc1ccccc1)N1CCCCCC1` (stereo not drawn)?
HPGD inh: 0%

How did O=C(O)C1CC=CCC1C(=O)NCc1ccc2c(c1)OCO2 (stereo not drawn) do in these assays?
HPGD inh: -5%

What do the screens show for `COCC(C)NC(=O)c1cc(-c2ccccc2OC)on1` (stereo not drawn)?
HPGD inh: -17%

How did CCOC(=O)CSC1=C(C#N)C(c2ccc(Cl)cc2)CC(=O)N1 (stereo not drawn) do in these assays?
HPGD inh: 1%

Results for O=C(CSc1nc(O)c(C2CCCCC2)c(=O)[nH]1)Nc1ccc(Cl)cc1 ?
HPGD inh: -6%

How did Cn1c(NC(=O)c2cc(-c3ccc4c(c3)OCO4)nc3ccccc23)cc(=O)n(C)c1=O do in these assays?
HPGD inh: -10%

What do the screens show for `COc1ccc(O)c(-c2cn[nH]c2-c2cccs2)c1`?
HPGD inh: -2%

Results for N=C1Sc2ccccc2C2=NCCCN12 ?
HPGD inh: 2.2µM*

Results for O=C(Nc1ccc2c(c1)OCCO2)C1CCCN(S(=O)(=O)c2cccnc2)C1 (stereo not drawn) ?
HPGD inh: -6%

How did Cc1cc(C)nc(SCC(=O)N2CCOCC2)n1 do in these assays?
HPGD inh: -11%

How did COc1ccc2nc(SCC(=O)c3ccco3)[nH]c2c1 do in these assays?
HPGD inh: -11%

Results for O=C(CSc1nnc(SCc2ccc(Cl)cc2)s1)N1CCN(C(=O)c2ccco2)CC1 ?
HPGD inh: -26%

What do the screens show for `CC1C(O)=C(c2nc3ccccc3[nH]2)C(=N)N1c1ccccc1` (stereo not drawn)?
HPGD inh: -15%

How did O=C1C(C=NCCCN2CCOCC2)=C(O)c2ccccc21 do in these assays?
HPGD inh: -13%

How did COC(=O)c1ccc(C(NC(=O)OCc2ccccc2)/C(C)=C/[C@@H](C)C(=O)NCCO)cc1 (stereo partly drawn) do in these assays?
HPGD inh: -13%

How did Cc1cc(C(=O)OCC(=O)N(C)C2CCS(=O)(=O)C2)c(C)n1-c1ccccc1 (stereo not drawn) do in these assays?
HPGD inh: -2%

What do the screens show for `CC[C@]1(c2ccccc2)NC(=O)N(C)C1=O`?
HPGD inh: 2%

Brought forward from above: four compounds; new compounds follow.
How did O=C1C(C=NCCCN2CCOCC2)=C(O)c2ccccc21 do in these assays?
HPGD inh: -13%

How did COC(=O)c1ccc(C(NC(=O)OCc2ccccc2)/C(C)=C/[C@@H](C)C(=O)NCCO)cc1 (stereo partly drawn) do in these assays?
HPGD inh: -13%

How did Cc1cc(C(=O)OCC(=O)N(C)C2CCS(=O)(=O)C2)c(C)n1-c1ccccc1 (stereo not drawn) do in these assays?
HPGD inh: -2%

What do the screens show for `CC[C@]1(c2ccccc2)NC(=O)N(C)C1=O`?
HPGD inh: 2%

Results for C=C(C)C(=O)c1cccs1 ?
HPGD inh: -7%

Results for CC(C)NC(=O)/C(C#N)=C/c1cccc(NC(=O)c2ccccc2Cl)c1 ?
HPGD inh: -23%

How did Cc1sc(NC(=O)c2cccs2)c(C(=O)OC(C)C)c1C do in these assays?
HPGD inh: inconclusive

Results for COc1ccc(-c2nnc(SC(C)C(=O)NNC(=O)c3ccc(C)cc3)o2)cc1 (stereo not drawn) ?
HPGD inh: -17%

How did COc1ccc(S(=O)(=O)Nc2ccccc2OC)cc1NC(=O)CC1CC2CCC1C2 (stereo not drawn) do in these assays?
HPGD inh: -11%

What do the screens show for `O=C(C1CCN(CCCc2ccccc2)CC1)N(CCc1ccccc1)Cc1ccccc1`?
HPGD inh: -1%

How did COc1ccccc1CNC(=O)COC(=O)c1n[nH]c2ccccc12 do in these assays?
HPGD inh: -21%

What do the screens show for `Cc1ccc(F)cc1NC(=O)Cc1ncc(C(F)(F)F)cc1Cl`?
HPGD inh: -1%

How did CCCCc1nc(N2CCOCC2)c(C#N)c2c1COC(C)(C)C2 do in these assays?
HPGD inh: inconclusive

What do the screens show for `CCCc1cc(N2CCN(c3ccccn3)CC2)n2nc(C)c(-c3ccccc3)c2n1`?
HPGD inh: inconclusive

Results for CCOC(=O)c1c(NC(=O)c2ccc(N3C(=O)[C@@H]4[C@H](C3=O)[C@H]3C=C[C@@H]4C3)cc2)sc2c1CC(C)CC2 (stereo partly drawn) ?
HPGD inh: inconclusive

Results for COc1ccc(S(=O)(=O)N(C)CC(=O)NCc2ccco2)cc1 ?
HPGD inh: -19%

Structural class: the entries above containing a thiophene ring, fused or not.
What do the screens show for `Cc1cccc(NS(=O)(=O)c2cccs2)c1`?
HPGD inh: 28µM*

What do the screens show for `c1ccsc1`?
HPGD inh: -15%

What do the screens show for `COc1ccc(O)c(-c2cn[nH]c2-c2cccs2)c1`?
HPGD inh: -2%

Results for C=C(C)C(=O)c1cccs1 ?
HPGD inh: -7%

How did Cc1sc(NC(=O)c2cccs2)c(C(=O)OC(C)C)c1C do in these assays?
HPGD inh: inconclusive

Results for CCOC(=O)c1c(NC(=O)c2ccc(N3C(=O)[C@@H]4[C@H](C3=O)[C@H]3C=C[C@@H]4C3)cc2)sc2c1CC(C)CC2 (stereo partly drawn) ?
HPGD inh: inconclusive

Continued:
How did O=c1c2ccccc2nc(N/N=C/c2ccc(O)cc2)n1O do in these assays?
HPGD inh: 13µM*

How did CCCCN(C)C(=O)c1ccc2c(c1)N(CC)C(=O)c1ccccc1S2(=O)=O do in these assays?
HPGD inh: 1%

How did CCOc1ccc(/C=N/NC(=O)c2nnn(-c3nonc3N)c2-c2ccc(OCC)cc2)cc1 do in these assays?
HPGD inh: -21%

What do the screens show for `Cc1ccc(C(C)(C)C)cc1S(=O)(=O)Nc1cccc(S(=O)(=O)NC2=NCCC2)c1`?
HPGD inh: -3%

What do the screens show for `CCc1ccccc1N(CC(=O)N1CCN(c2ccc(F)cc2)CC1)S(C)(=O)=O`?
HPGD inh: -3%

What do the screens show for `COc1ccc(N2C(=O)C(Cl)=C(NCc3ccccc3)C2=O)cc1`?
HPGD inh: -30%

Results for O=C(c1cnccn1)N1CCC[C@@]2(CCN(c3cccc(-c4ccccc4)c3)C2)C1 ?
HPGD inh: -12%

Results for CC1CCN(C(=S)Nc2ccc(F)cc2)CC1 ?
HPGD inh: -5%

What do the screens show for `NCCSSCCN`?
HPGD inh: 0%&5%&2%

Results for CCOC(=O)Cn1c(CN(Cc2ccccc2)Cc2ccccc2)nc2c1c(=O)[nH]c(=O)n2C ?
HPGD inh: -9%

What do the screens show for `COc1cc([N+](=O)[O-])cc(/C=N/NC(=O)C(C)Nc2cccc(C)c2)c1O` (stereo not drawn)?
HPGD inh: -9%

Results for CCCCn1cnc2c([nH]c3cc(OC)ccc32)c1=O ?
HPGD inh: -4%

How did Cc1cc(C)nc(SCc2nnc(SCC#N)n2-c2cccc(Cl)c2)n1 do in these assays?
HPGD inh: 16µM*

Results for CC1CC(=S)Nc2ccccc2N1Cc1ccccc1 (stereo not drawn) ?
HPGD inh: -14%

What do the screens show for `COC(=O)c1ccc(NC(=S)NC2CC3CCC2C3)cc1` (stereo not drawn)?
HPGD inh: inconclusive

What do the screens show for `C1=C(c2ccccc2)CCN(c2nc3ccccc3n3cnnc23)C1`?
HPGD inh: 14µM*

Results for CCCCC[C@H](O)/C=C/C=C\C/C=C\C=C\[C@@H](O)CCCC(=O)O ?
HPGD inh: -7%

What do the screens show for `Cc1ccc(NC(=S)NCc2cccs2)c(C)c1`?
HPGD inh: inconclusive

Results for CC(CNCC1CCCO1)COc1ccccc1 (stereo not drawn) ?
HPGD inh: 2%

Results for Cc1nn(CC(=O)NCc2ccc(OC(C)C)cc2)c(=O)c2cc3occc3n12 ?
HPGD inh: -29%

How did CC(C)(C)c1ccc(C(=O)c2c[nH]c(C(=O)NCc3ccco3)c2)cc1 do in these assays?
HPGD inh: -3%

Results for O=C(Nc1ccc(N2CCOCC2)c(Cl)c1)c1ccc(F)cc1 ?
HPGD inh: -16%

What do the screens show for `O=C1CN(C(=O)COC(=O)CCC(=O)c2ccc3c(c2)OCCO3)c2ccccc2N1`?
HPGD inh: -19%

How did O=C(O)C1C2C=CC(C2)C1C(=O)NCc1ccc(Cl)c(Cl)c1 (stereo not drawn) do in these assays?
HPGD inh: 1%

How did C/C(=N\O)c1cccc[n+]1Cc1ccccc1 do in these assays?
HPGD inh: -5%

Results for Cc1nn(-c2cccc(C(F)(F)F)c2)c(Cl)c1/C=N/n1cnnc1 ?
HPGD inh: -7%

Results for Cn1c(=O)[nH]c(=O)c2c1nc(SCC(=O)O)n2CCc1ccccc1 ?
HPGD inh: 13µM*

What do the screens show for `Cc1ccccc1Cn1cc(S(=O)(=O)CC(=O)Nc2nccs2)c2ccccc21`?
HPGD inh: -1%

Results for Cc1ccccc1Cn1c(CN2CCN(c3ccc(F)cc3)CC2)nc2c1c(=O)n(C)c(=O)n2C ?
HPGD inh: -5%

What do the screens show for `O=C1CCC(=O)N1OCCCOc1ccc2c(c1)CCC2`?
HPGD inh: -24%

How did O=C(Nc1nc2ccccc2[nH]1)c1ccc(F)c(S(=O)(=O)N2CCOCC2)c1 do in these assays?
HPGD inh: -5%

Results for CC(C)[C@H](NC(=O)OCc1ccccc1)C(=O)NCc1ccccc1 ?
HPGD inh: -8%

Results for Cc1ccc(S(=O)(=O)c2cnc(-c3ccccc3)nc2Oc2ccccc2)cc1 ?
HPGD inh: -7%

What do the screens show for `CCOC(=O)c1nnn(-c2ccccc2C#N)c1C`?
HPGD inh: -16%

Results for NNC(=O)c1ccc([N+](=O)[O-])c(CS(=O)(=O)c2ccc(Cl)cc2)c1 ?
HPGD inh: -19%

How did Cc1ccc(S(=O)(=O)N(C)CC(O)Cn2c3ccccc3c3ccccc32)cc1 (stereo not drawn) do in these assays?
HPGD inh: -10%

What do the screens show for `CCS(=O)(=O)c1ccc2oc(Nc3cc(C)cc(C)c3)nc2c1`?
HPGD inh: -27%

Results for CC1CCCN(Cc2cccc(Oc3ccccc3)c2)C1 (stereo not drawn) ?
HPGD inh: -4%
